CtBP-E1A inh = qHTS Assay for Inhibitors of the CtBP/E1A Interaction; CtBP / adenovirus E1A interaction (AlphaScreen); AlphaScreen GST-E1A/His-CtBP binding, 1536-well; hits give low values; control for the full effect not named in the record; activity change, % (concentration not given with the values); actives 0.49% (n = 340,000); in the data active means activity change below about -65%; inconclusive means about -30% to -65%; inactive means above about -30%; note: % is set by controls: 0 for no effect and ±100 for the full control effect
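Protein mix (5X: 125 nM each GST-E1A, His-CtBP) was incubated with pinned compound 2 h at 37 deg C in dark, in 50 mM Tris pH 8.0 buffer with 300 mM NaCl. Glutathione donor and nickel acceptor beads followed; AlphaScreen signal read after 1 h.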
TRPML1 blocker = qHTS for Inhibitors of the Human Mucolipin Transient Receptor Potential 1 (TRPML1) | TRPML1-inducible cells, Ca2+ dye fluorescence, FDSS; hits give low values; inhibition of EC80 agonist-evoked calcium signal | activity change, negative = inhibition, % (test concentration not listed) | Mucolipin-1 (Homo sapiens), Q9GZU1 | actives 0.02% (n = 390,000); in the data active means activity change below about -50%; inconclusive means about -30% to -50%; inactive means above about -30%;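 note: stimulus is agonist 54-4 at its EC80 concentration; % is set by controls: 0 for no effect and ±100 for the full control effect; compound concentration not given in the record; the text of the record puts the active cut at -80%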
Target sequence (Q9GZU1 whole entry, looked up): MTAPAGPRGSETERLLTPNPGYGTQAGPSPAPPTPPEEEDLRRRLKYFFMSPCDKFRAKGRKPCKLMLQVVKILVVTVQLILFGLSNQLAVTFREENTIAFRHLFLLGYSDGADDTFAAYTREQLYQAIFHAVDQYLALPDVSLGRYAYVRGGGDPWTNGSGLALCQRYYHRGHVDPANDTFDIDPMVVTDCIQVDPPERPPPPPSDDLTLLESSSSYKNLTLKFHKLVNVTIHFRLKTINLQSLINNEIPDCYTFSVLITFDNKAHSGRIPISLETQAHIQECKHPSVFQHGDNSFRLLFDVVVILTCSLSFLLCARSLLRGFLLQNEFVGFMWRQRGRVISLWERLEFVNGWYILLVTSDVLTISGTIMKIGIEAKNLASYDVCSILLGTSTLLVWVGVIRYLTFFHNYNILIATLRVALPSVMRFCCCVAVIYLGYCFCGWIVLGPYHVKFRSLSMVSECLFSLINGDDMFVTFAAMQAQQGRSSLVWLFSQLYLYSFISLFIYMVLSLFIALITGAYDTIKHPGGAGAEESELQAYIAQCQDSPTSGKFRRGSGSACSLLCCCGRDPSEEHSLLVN
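TRPML1-DL cells, Tet-induced overnight (~16 h, 37 °C) at 1,500 cells/well, were loaded with Ca8 no-wash dye plus quencher for 45-90 min at room temperature. Compounds were pinned during FDSS kinetic reading; agonist 54-4 at EC80 (4 uM final) then added.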
TRPML1 agonist = qHTS for Agonists of the Human Mucolipin Transient Receptor Potential 1 (TRPML1). Mucolipin-1 (Homo sapiens), Q9GZU1. actives 0.12% (n = 410,000). TRPML1-expressing cells, Ca2+ dye fluorescence, FDSS; host cell line not named in the record; reference of the full effect not given here. activation, % (no concentration beside the values). AID 624414, 2012; in the data active = activation above about 50%; inconclusive = about 30% to 50%; inactive = below about 30%; note: 0% is about no effect; the text of the record puts the active cut at 80%
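In this qHTS format, compounds were pin-transferred onto Ca8-dye-loaded TRPML1-DL cells induced with Tet overnight, and intracellular Ca2+ fluorescence was recorded kinetically for 110 s after a 10 s baseline. A subsequent 4uM final 54-4 (EC80) addition followed by a second 110 s read served as the antagonist phase.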
D2 agonist = Beta-Arrestin HTS for Positive Allosteric Modulators of the Human D2 Dopamine Receptor: Agonists | D(2) dopamine receptor (Homo sapiens), P14416 | DiscoveRx PathHunter D2 beta-arrestin, luminescence, 90 min; 100% = 57 uM dopamine signal | activation, % (no concentration beside the values) | actives 0.084% (n = 360,000); in the data active = activation above about 40%; inconclusive = about 15% to 40%; inactive = below about 15%; note: compound concentration not given in the record; the text of the record calls up to 30% inactive
Target sequence (P14416 whole entry, looked up): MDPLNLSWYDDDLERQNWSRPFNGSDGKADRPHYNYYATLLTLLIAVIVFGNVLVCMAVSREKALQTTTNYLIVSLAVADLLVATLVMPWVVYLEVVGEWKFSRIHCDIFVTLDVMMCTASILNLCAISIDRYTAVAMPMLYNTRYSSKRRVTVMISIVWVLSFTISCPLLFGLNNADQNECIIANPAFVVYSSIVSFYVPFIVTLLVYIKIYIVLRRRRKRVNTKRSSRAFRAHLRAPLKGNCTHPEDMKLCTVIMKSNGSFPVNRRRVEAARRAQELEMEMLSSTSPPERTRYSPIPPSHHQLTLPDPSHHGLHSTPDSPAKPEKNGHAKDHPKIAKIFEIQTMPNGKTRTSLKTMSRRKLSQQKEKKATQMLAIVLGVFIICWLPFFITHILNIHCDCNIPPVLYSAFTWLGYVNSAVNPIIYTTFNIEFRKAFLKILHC
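Agonist mode: compounds alone added to overnight-plated D2 PathHunter cells for 90 min at 37 C, with 57 uM final dopamine (EC100) defining full response. Beta-arrestin recruitment detected by chemiluminescent reagent, read after 1 h at ambient temperature.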
PINK1 modulator = A Quantitative High throughput Screen to Identify Chemical Modulators of PINK1 Expression; PINK1 immunofluorescence, high-content cytometry, 24 h; Potency, µM (top dose mostly 76.6 µM), inactives show top-dose activation (PINK1 increase), usual class: activators; actives 0.2% (n = 410,000); AID 624263, 2012; active = well fitted activation curve with a large enough effect; inconclusive = small, poorly fitted or top-dose-only effect; inactive = flat fitted curve, though single readings scatter; cell line not stated here;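 note: potency is the fitted concentration of half-maximal effect; % of control where 0% means no effect; nearly all actives have a fitted effect of over 65% in size; a mitochondrial uncoupler was the plate control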
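Readout is PINK1 immunofluorescence, quantified alongside mitochondrial, cell and nuclear markers by laser-scanning microplate cytometry. Cells from a stable line were exposed to compound titrations (5 concentrations) for 24 hours, with CCCP controls.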
Six1-Eya2 blk = qHTS Assay for Inhibitors of the Six1/Eya2 Interaction. actives 0.56% (n = 360,000). AID 651725, 2012. activity change, % (concentration not given with the values). AlphaScreen GST-Six1/His-Eya2 binding, biochemical; hits give low values; control for the full effect not named in the record. Homeobox protein SIX1 (Homo sapiens) + Protein phosphatase EYA2 (Homo sapiens), …; in the data active = activity change below about -65%; inconclusive = about -30% to -65%; inactive = above about -30%; note: % is set by controls: 0 for no effect and ±100 for the full control effect
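Homogeneous AlphaScreen proximity assay pairing GST-Six1 with His-tagged Eya2 (added as 5X mix: 250 nM and 500 nM) in 50 mM Tris pH 8.0, 300 mM NaCl, 1 mM TCEP. Glutathione donor and nickel acceptor beads; 1 h, 37 °C, dark.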
Active calls of the source: *; ? = inconclusive; · = no result given; [ ] = another dose, or the depositor's remark.

Order of results: CtBP-E1A inh	TRPML1 blocker	TRPML1 agonist	D2 agonist	PINK1 modulator	Six1-Eya2 blk
COc1ccc(C(=O)CC(SCC(NC(C)=O)C(=O)O)c2ccc(Cl)cc2)cc1OC (stereo not given)
    ·	34	3.1	3.3	-1.1%	-2
CC[C@]12c3[nH]c4ccc(Cl)cc4c3CCN1C(=O)[C@@H](CC(=O)NCC13CC4CC(CC(C4)C1)C3)C[C@@H]2C(=O)N1CCN(C(=O)C2CC2)CC1
    -1	-10	3.6	-4.0	?	-6
Cc1cc2c(c(=O)n1CCN(C)C)C(c1ccc(Br)cc1)C(C#N)=C(N)O2 (stereo not given)
    -1	0	-0.5	-1.6	0.5%	4
COC(=O)c1ccc(CNC(=O)COC(=O)Cc2ccsc2)cc1
    -11	-24	-0.6	-3.5	3.0%	14
COC(=O)c1cc2ccsc2n1CC(=O)Nc1ccc(N(C)C)cc1
    -2	-10	0.3	0.4	·	3
Cc1ccc(C(=O)NC(=S)Nc2ccc3c(c2)OCCO3)c(C)c1
    -14	5	-1.0	-1.1	-2.6%	-22
COc1ccc(C(=O)NCc2cccs2)cc1S(=O)(=O)N1CCOCC1
    -2	-4	-0.4	3.0	1.6%	-2
Cc1nn(CCCC(=O)NCCc2ccccc2)c(=O)c2nccn12
    11	22	-0.1	1.9	-0.2%	12
COC(=O)CSc1nc2c(c(=O)n(C)c(=O)n2C)n1CCC(C)C
    0	3	-1.7	0.2	-2.5%	10
C=CCSc1nnc(-c2ccccc2NC(=O)CC)c(=O)[nH]1
    0	4	-0.5	-2.4	1.5%	-1
c1ccc(-c2cc(-c3nnco3)c3ccccc3n2)nc1
    -3	16	1.1	-0.9	0.7%	1
COc1ccc(OCC(=O)NC2CC(=O)N(c3ccc4c(c3)OCCO4)C2)cc1 (stereo not given)
    ·	17	-0.5	·	0.3%	·
COc1ccc(S(=O)(=O)NCc2ccccn2)c(C)c1C
    1	11	-0.6	0.6	-0.1%	3
Cc1cc(C)n(-c2ccc(C(=O)OC(C)C(=O)Nc3ccc(C(N)=O)cc3)cc2)n1 (stereo not given)
    9	5	1.6	0.5	-1.6%	-7
Cc1nn(CC(=O)N2CCN(C(=O)c3ccco3)CC2)c(C)c1[N+](=O)[O-]
    2	25	-0.4	4.0	-0.6%	1
Cc1cccc(NC(=O)CCC(=O)N/N=C/c2cccnc2)c1
    -5	10	0.9	-5.8	-0.4%	-2
COc1ccc2oc(=O)c(C(C)=O)cc2c1
    8	13	0.2	-0.3	·	3
CC1(C(=O)NCc2cccc(C(F)(F)F)c2)CCN1Cc1cc2ccccc2o1 (stereo not given)
    4	·	0.2	-3.4	?	-2
Cc1cccc(OCC(=O)Nc2cccc(C(=O)NCC(C)C)c2)c1
    -1	-15	-0.4	-1.2	-0.7%	-2
COc1ccc(Cl)cc1/C=C/c1ccc2cccc(O)c2n1
    1	6	3.7	0.6	?	1
CCCCOc1ccc(C(=O)NCCc2sc3nc(-c4ccc(OC)cc4)nn3c2C)cc1
    ·	-1	0.3	·	-0.4%	·
COc1ccc(C(=O)Cc2ccc(OC)c(OC)c2)cc1
    12	0	-0.4	1.5	0.6%[38.3 µM]	0
Cc1ccc(N2CC(C(=O)N3CCN(c4ccccc4)CC3)CC2=O)cc1 (stereo not given)
    4	-6	0.4	-1.8	·	1
COc1c(F)c(F)c(C(=O)O)c(Nc2ccccc2)c1F
    7	-3	0.4	-1.1	0.0%[38.3 µM]	8
CCOCCCn1c(SCC(=O)Nc2oc(C)c3c(C)n[nH]c(=O)c23)nc2ccccc2c1=O
    -6	4	2.6	2.5	3.5%	-8
COc1ccc(NC(=O)CSc2nc3ccccc3nc2N2CCCC2)c(OC)c1
    6	-15	0.4	-4.7	1.9%	4
Cc1nc2cc(OC3(C)CCN(Cc4ccc(OC(F)(F)F)cc4)C3)ccc2s1 (stereo not given)
    6	·	-0.8	-1.7	45µM*	-2
CCOC(=O)Cc1csc(NC(=O)CSc2nnc(Cc3csc(N)n3)n2C)n1
    -9	2	-0.4	-1.2	1.0%	-29
COCCn1cnc2c1c(=O)[nH]c(=O)n2Cc1ccccc1
    ·	24	-0.1	-1.9	0.4%	1
CCCNc1ccc(S(=O)(=O)N(CC)CC)cn1
    -25	-5	-0.5	-0.4	0.4%	8
CC(=O)c1cccc(NC(=O)c2ccc(CN3CCc4ccccc4C3)cc2)c1
    -25	-10	-0.1	-8.5	6.5%	-21
O=C(Nc1ccc(-c2ccc3nncn3n2)cc1)C1CCCCC1
    3	2	-0.5	-0.3	4.1%	1
CCOc1ccccc1-c1nnc(SCC(=O)Nc2ccccc2)o1
    -3	-4	3.3	-3.4	-2.6%	-1
O=C(Nc1ccccc1)N1CCCC2CCCCC21 (stereo not given)
    7	25	0.1	-1.1	0.1%	7
COc1ccc(NS(=O)(=O)c2cccc(Cl)c2)cc1S(=O)(=O)N1CCCCC1
    -10	14	-0.4	-1.8	-1.5%	0
Cc1ccc(NC(=S)N2CCCC2)cc1Cl
    4	0	-0.4	-1.7	-0.5%	5
CS(=O)(=O)c1ccc2nc(NC(=O)Nc3ccc(Cl)cc3)sc2c1
    15	28	0.2	0.6	1.1%	-2
COC(=O)c1ccc(-c2ccco2)n1Cc1nc(-c2ccc(OC)c(OC)c2)oc1C
    -17	3	1.1	-2.8	-1.2%	-20
C=CCNc1nc(C(=O)OCC(=O)c2ccccc2)cs1
    -6	-3	1.4	-3.1	-1.2%	6
CC1(C(=O)NS(=O)(=O)c2ccc(Br)cc2)CCN1C(=O)CCc1ccccc1 (stereo not given)
    -18	·	-0.1	-2.9	0.0%	4
COC(=O)CCN(Cc1ccccc1)S(=O)(=O)c1ccccc1Br
    8	16	-1.0	-0.8	-1.3%	11
O=C(N/C(=C/c1ccco1)C(=O)N1CCOCC1)c1ccc([N+](=O)[O-])cc1
    6	-5	-0.2	-2.8	-0.2%	0
Cc1ccccc1Oc1cc(NC(=O)CCCn2nc(C)c([N+](=O)[O-])c2C)cc([N+](=O)[O-])c1
    2	-7	1.4	3.7	?	-13
O=C(COc1coc(CN2CCN(c3ccccc3)CC2)cc1=O)NC1CCCCC1
    -15	1	1.2	1.4	-4.9%	2
COc1ccccc1NC(=O)c1ccc(NC(=O)COC(=O)C2CCCO2)cc1 (stereo not given)
    8	24	1.6	3.5	-1.4%	2
CCCOC(=O)CSC1=C(C#N)C(c2ccccc2OC)C(C#N)C(=O)N1 (stereo not given)
    22	8	0.4	-6.9	2.5%	22
Cc1ccc(CNC(=O)C(=O)NCC(c2cccnc2)N2CCN(c3ccc(F)cc3)CC2)cc1 (stereo not given)
    ·	12	1.0	·	0.5%	·
O=[N+]([O-])c1ccc(C[n+]2cccc3ccc4cccnc4c32)cc1
    -89*	17	-0.4	1.3	-1.5%	-90*
CCCN1CNC(=S)N(CC2CCCO2)C1 (stereo not given)
    13	-5	0.0	-4.6	-1.1%	9
Cc1c(C(=O)NCCC#N)sc(=O)n1Cc1ccc(F)cc1
    1	·	-0.3	-4.2	0.6%	-2
O=C(Nc1ccccc1)N1CCCC1
    8	-7	0.1	-1.4	0.8%[38.3 µM]	4
CCOC(=O)C1CCN(Cc2ccc(F)c(Br)c2)CC1
    8	4	-1.0	-2.7	-5.1%[38.3 µM]	5
Cc1ccc(Cl)cc1N1CCN(C(=O)CCSCc2ccccc2F)CC1
    ·	0	0.4	·	0.9%	·
COc1ccc(C2(C)NC(=O)N(CC(=O)NCC(=O)Nc3ccc(F)c(F)c3F)C2=O)cc1OC (stereo not given)
    10	1	-0.4	-1.0	0.3%	-3
CCOC(=O)C(=O)NC12CC3CC(CC(C3)C1)C2
    13	4	0.1	-1.7	1.1%	4
CN1C(=O)/C(=C/c2cccc([N+](=O)[O-])c2)C(=O)N1c1ccccc1
    -1	4	0.1	1.3	1.5%	-10
CCCOc1ccc(C(=O)N(Cc2cccs2)c2ccc(C)cc2)cc1
    ·	-11	3.1	·	1.7%	·
Cc1ccc(N(C(=O)CNC(=O)c2ccco2)C(C(=O)NC2CCCC2)c2cccnc2)c(C)c1 (stereo not given)
    -1	-3	-0.5	2.2	-1.8%	-1
O=C(NNC(=O)c1ccccc1F)C1=NN(c2ccccc2)C(=O)CC1
    1	3	-0.7	-0.6	-0.3%	2
C[C@H](CO)N1C[C@H](C)[C@@H](CN(C)C(=O)Nc2ccc3c(c2)OCO3)Oc2c(NC(=O)Nc3ccccc3)cccc2C1=O
    -2	-4	-0.3	8.4	-0.8%	-3
CCOC(=O)C1CCCc2c1[nH]c1ccc(Cl)cc21 (stereo not given)
    -7	18	-0.8	-2.1	4.5%	-6

2 entries from above, with bars between the fields.
Structure | CtBP-E1A inh | TRPML1 blocker | TRPML1 agonist | D2 agonist | PINK1 modulator | Six1-Eya2 blk
O=C(COc1coc(CN2CCN(c3ccccc3)CC2)cc1=O)NC1CCCCC1 | -15 | 1 | 1.2 | 1.4 | -4.9% | 2
COc1ccccc1NC(=O)c1ccc(NC(=O)COC(=O)C2CCCO2)cc1 (stereo not given) | 8 | 24 | 1.6 | 3.5 | -1.4% | 2

Some of these compounds in order of the Six1-Eya2 blk value, lowest first:
structure | CtBP-E1A inh | TRPML1 blocker | D2 agonist | PINK1 modulator | Six1-Eya2 blk
CN1C(=O)/C(=C/c2cccc([N+](=O)[O-])c2)C(=O)N1c1ccccc1 | -1 | 4 | 1.3 | 1.5% | -10
O=C(Nc1ccc(-c2ccc3nncn3n2)cc1)C1CCCCC1 | 3 | 2 | -0.3 | 4.1% | 1
COc1ccccc1NC(=O)c1ccc(NC(=O)COC(=O)C2CCCO2)cc1 (stereo not given) | 8 | 24 | 3.5 | -1.4% | 2
